Source: PubChem
HCMV NEC inh – inhibitors of HCMV UL50-UL53 interaction, biochemical, HTRF; 190,000 compounds, 0.15% hits; inhibition, % (no concentration beside the values); HCMV UL50-UL53 nuclear egress complex (human cytomegalovirus); normalized percent inhibition;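 active = both replicates at 50% or more, plus weaker picks with an unusually low signal ratio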;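 note: stock transfer was 100 nL into about 20 µL; 0% = negative control wells and 100% = wells with untagged competitor protein; inactives centre near -12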
Sa growth 42C – S. aureus growth inhibition at 42 and 30 °C, primary screen, LtaS inhibitor project, RN4220, two temperatures; OD600, 20 h, 42 °C; active compounds read low; relative growth, % (concentration not given with the values); 170,000 compounds, 0.53% hits; AID 720641, 2013;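 active = growth at 42 °C up to 50% and 20 or more points under that at 30 °C, or under 10% at both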;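 note: 300 nL library stock went into each well; scaled to the means of positive and negative controls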
GIV Gai3 FP – inhibitors of GIV peptide binding to Galpha-i3, primary screen, biochemical, fluorescence polarization, FITC-GIV GBA peptide, rat Galphai3. Guanine nucleotide-binding protein G(i) subunit alpha-3 (Rattus norvegicus), P08753. 90 min; active compounds read low; scaled: aluminum fluoride 0%, vehicle 100%. percent of control (FP), % (concentration not given with the values). 210,000 compounds, 0.42% hits. AID 1224905, 2016;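 active = replicate mean at 85% of control or lower, very high polarization wells dropped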;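 note: wells of about 15 µL received 100 nL stock; the first replicate is given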
Target sequence (P08753 whole entry, looked up): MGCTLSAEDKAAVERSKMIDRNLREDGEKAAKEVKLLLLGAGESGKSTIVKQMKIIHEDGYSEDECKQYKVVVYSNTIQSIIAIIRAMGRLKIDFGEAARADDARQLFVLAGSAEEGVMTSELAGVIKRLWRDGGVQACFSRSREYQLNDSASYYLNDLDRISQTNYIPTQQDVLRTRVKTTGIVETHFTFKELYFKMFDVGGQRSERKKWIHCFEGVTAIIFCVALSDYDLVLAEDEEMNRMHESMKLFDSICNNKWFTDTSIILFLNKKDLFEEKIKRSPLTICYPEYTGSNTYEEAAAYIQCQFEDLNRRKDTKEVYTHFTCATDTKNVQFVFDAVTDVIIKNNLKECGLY
Sa growth 42C second temp – recorded beside Sa growth 42C, whose call it bears; relative growth, %; measured here: growth at 30 °C;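 optical density after 20 h as mean of two plates; 100% = untreated growth and lower means inhibition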
* hit, by the source's call; · = no result given; & = joins results of further samples.

entry	smiles	HCMV NEC inh	Sa growth 42C
1	O=S(=O)(Nc1nc2n(n1)C(c1ccccc1)C=C(c1ccccc1)N2)c1ccc(Cl)cc1 (stereo unspecified)	-41	·
2	Cc1cccc(C)c1OCc1nc2c3cnn(-c4ccccc4)c3ncn2n1	-18	·
3	CCOc1ccc(OCC(O)CNC2CC(C)(C)NC(C)(C)C2)cc1 (stereo unspecified)	-12	95
4	Cn1c(=O)n(C)c2cc3c(cc21)[nH]c(=O)c(=O)n3Cc1ccccc1	-24	101
5	CCc1nnc(NC(=O)C2CCCN2S(=O)(=O)c2ccccc2)s1 (stereo unspecified)	4	119
6	CCNc1nc(NC)nc(-n2cnc(SC)n2)n1	-4	·
7	COC(=O)C1Cc2ccccc2CN1Cc1c(O)ccc2ccccc12 (stereo unspecified)	-14	100
8	COC(=O)c1ccc(-c2nc3cnccn3c2NC2CCCC2)cc1	-53	·
9	Cc1cc(C(=O)Nc2ccc(Br)cc2)no1	-25	·
10	COc1ccc(Cl)cc1NC(=O)CN(c1cccc(C)c1C)S(=O)(=O)c1ccccc1	-21	98
11	O=C1N(CN(CCc2ccccc2)Cc2ccccc2)c2ccccc2C12OCCCO2	·	90
12	Cc1ccc(C(=O)n2cnc3ccccc32)cc1	-14	86

entry	Sa growth 42C second temp	GIV Gai3 FP
1	·	96
2	·	95
3	94	·
4	90	104
5	89	102
6	·	101
7	91	·
8	·	117
9	·	100
10	93	99
11	91	98
12	81	102

Two entries picked at random from those above, as already listed:
entry	smiles	HCMV NEC inh	Sa growth 42C
11	O=C1N(CN(CCc2ccccc2)Cc2ccccc2)c2ccccc2C12OCCCO2	·	90
8	COC(=O)c1ccc(-c2nc3cnccn3c2NC2CCCC2)cc1	-53	·

entry	Sa growth 42C second temp	GIV Gai3 FP
11	91	98
8	·	117

(next part)
entry	smiles	HCMV NEC inh	Sa growth 42C
13	Cc1nc2ccc(NC(=O)c3ccccc3C)cc2o1	-10	115
14	O=C(CN1CCOc2ccccc21)NC1CCN(Cc2ccccc2)CC1	8	90
15	O=S(=O)(c1ccc(Br)cc1)N1CCNCC1	-3	104
16	O=S1(=O)CCN(Cc2ccc(OC(F)(F)F)cc2)CC1	-20	·
17	CCN(CC)c1ccc(N2CC(O)=C(c3nc4ccccc4c(=O)[nH]3)C2=N)cc1	-10	·
18	COc1ccc(/C=C/c2onc(C)c2S(=O)(=O)N2CCC(C(=O)N3CCCCC3)CC2)cc1	·	104
19	Cc1ccccc1NC(=O)c1csc2c1CCCC2	-5&-24	·
20	Cc1nn(C(=O)Nc2ccccc2Cl)c2ccccc12	-29	·
21	O=C(CCc1ccccc1)c1ccccc1	-10	112
22	Cc1ccccc1C(=O)Nc1c(C)[nH]c(=O)[nH]c1=O	3	108
23	COc1ccc(NC(=O)c2ccnc(Nc3ccc(OC)cc3)c2)cc1	8	·
24	O=C(O)CNS(=O)(=O)c1cccc(C(F)(F)F)c1	-12	81

entry	Sa growth 42C second temp	GIV Gai3 FP
13	82	100
14	83	101
15	91	·
16	·	95
17	·	153
18	90	107
19	·	102
20	·	100
21	52	101
22	99	·
23	·	108
24	95	·

Other structures:
entry	smiles	HCMV NEC inh	Sa growth 42C
25	Nc1ccc(S(=O)(=O)Nc2nccs2)cc1	-33&5&-12	55
26	Cc1ccc(N(C)C(=O)c2sc3nc4n(c(=O)c3c2C)CCCC4)cc1C	-14	116
27	COc1cc(OC)c(NC(=O)CN2N=NC3C(=O)N(c4ccc(C)c(C)c4)C(=O)C32)cc1Cl (stereo unspecified)	-10	·
28	CCN(CC)S(=O)(=O)c1cccc(-c2nc(=S)[nH][nH]2)c1	0	88
29	O=C(c1c[nH]c(=O)n(-c2ccccc2)c1=O)N1CCc2ccccc21	-33	105
30	COc1ccc2c(c1)CCC1C2=NN(C(C)=O)C1c1ccccc1F (stereo unspecified)	-1	91
31	CC(C)(C)C(=O)/C(C#N)=c1\s/c(=C\c2ccncc2)c(=O)n1CCCN1CCOCC1	-10	71
32	Cn1cc(NC(=O)NCc2ccc3c(c2)OCO3)c2ccccc21	-13	104
33	O=C(Nc1ccc(Cl)cc1)c1cnn2c(C(F)F)cc(C3CC3)nc12	-34	109
34	COc1ccc(OCc2nc3c4c(C)c(C)oc4ncn3n2)cc1	-4	100
35	CC(C)CCn1c(=O)c2sccc2n2c(SCc3ccccc3)nnc12	-34	·
36	CCNCC(=O)Nc1ccccc1C(F)(F)F	-21	104

entry	Sa growth 42C second temp	GIV Gai3 FP
25	29	·
26	93	92
27	·	101
28	91	·
29	86	102
30	106	101
31	93	·
32	91	109
33	98	113
34	95	106
35	·	97
36	81	·

(further entries)
entry	smiles	HCMV NEC inh	Sa growth 42C
37	O=C(Cc1cn2ccsc2n1)N/N=C/c1c(Cl)cccc1Cl	-26	88
38	O=C(O)c1ccc(NC(=O)c2ccc(Br)c(S(=O)(=O)N3CCCC3)c2)cc1	-32	102
39	Cc1nnc(NC(=O)CSc2nnc(-c3ccc(Cl)cc3)o2)s1	-9	·
40	CC(=O)N1C(Nc2ccc(Cl)cc2)CCN1c1ccccc1 (stereo unspecified)	-12	78
41	COc1ccc(N2CCN(CC(O)COc3ccc(C)cc3C)CC2)cc1 (stereo unspecified)	10	97
42	Cc1cccc(OC(=O)CSc2nc(-c3ccccc3)nc3cc(=O)[nH]n23)c1	0	·
43	Cc1cccc(-n2c3c(c(=O)[nH]c2=S)CN(CCc2ccccc2)CN3)c1	-10	85
44	COC(=O)/C=C1\SC(=NC(=O)c2ccc(OC)cc2)NC1=O	·	90
45	CCC(=O)Nc1cccc2cccnc12	-14	106
46	CC(C)CCn1c(=O)c2sccc2n2c(CCCC(=O)NCCc3ccccc3)nnc12	·	116
47	Cc1nnc(SCc2cc(=O)c3c(=O)n(-c4ccccc4)[nH]c3[nH]2)s1	-64	89
48	Cc1ccc(OCC(=O)Nc2ccccc2-c2nc(-c3ccccc3)no2)cc1	-4	·

entry	Sa growth 42C second temp	GIV Gai3 FP
37	75	·
38	88	104
39	·	107
40	106	95
41	91	110
42	·	100
43	88	109
44	85	100
45	105	106
46	82	100
47	82	104
48	·	109

Following part:
entry	smiles	HCMV NEC inh	Sa growth 42C
49	N=C1/C(=C2/Nc3ccccc3S2)CC(=O)N1c1ccc(F)cc1F	-23	·
50	Cc1cc2nc(SCc3ccc(F)cc3)[nH]c2cc1C	·	75
51	CCOc1cc(-n2c(C)ccc2C)c(OCC)cc1N1CCOCC1	-6	64
52	O=C(Nc1cccc(F)c1)C1CCN(S(=O)(=O)c2ccc3[nH]c4c(c3c2)CCCCC4)CC1	·	90
53	COc1cccc(Nc2ncc3c(n2)CCN(Cc2cc(OC)ccc2OC)C3)c1	6	·
54	CCc1ccc(OC(C)C(=O)Oc2cccc(-n3cnnn3)c2)cc1 (stereo unspecified)	-30	·
55	O=C(CCSc1ccc(C(F)(F)F)cc1)c1ccco1	-9	124
56	O=C(NCc1ccsc1)c1ccc2c(c1)CCO2	-1	114
57	CS(=O)(=O)N1CCN(CCc2ccccc2)CC1	-8	100
58	Cc1ccccc1OCc1nc2ccccc2n1C	9	91
59	Cc1nnc(NC(=O)CSc2ccc3nnc(-c4cccc(F)c4)n3n2)s1	-26	·
60	CC1CCCCN1S(=O)(=O)c1ccc(NC(=O)COc2ccc(F)cc2)cc1 (stereo unspecified)	-12	116

entry	Sa growth 42C second temp	GIV Gai3 FP
49	·	112
50	88	105
51	59	·
52	88	102
53	·	106
54	·	102
55	87	98
56	87	93
57	101	103
58	94	103
59	·	98
60	75	103

Record cards, as listed above. Screens in order: HCMV NEC inh	Sa growth 42C	Sa growth 42C second temp	GIV Gai3 FP
`Cn1c(=O)n(C)c2cc3c(cc21)[nH]c(=O)c(=O)n3Cc1ccccc1` across the screens: -24	101	90	104
`Cc1ccccc1NC(=O)c1csc2c1CCCC2` across the screens: -5&-24	·	·	102
`O=C(Nc1cccc(F)c1)C1CCN(S(=O)(=O)c2ccc3[nH]c4c(c3c2)CCCCC4)CC1` across the screens: ·	90	88	102
`O=C(CCSc1ccc(C(F)(F)F)cc1)c1ccco1` across the screens: -9	124	87	98

New compounds follow
entry	smiles	HCMV NEC inh	Sa growth 42C
61	CN1CCCC(OC(=O)c2cc(F)c(F)c(F)c2F)C1 (stereo unspecified)	1	123
62	Cc1nnsc1C(=O)Nc1ccc(S(=O)(=O)Nc2nccs2)cc1	-18	·
63	CC1CCN(CC(=O)Nc2ccc(F)cc2)CC1	11	96
64	COc1ccccc1C1CCN(C(=O)c2cnn(-c3ccccc3)c2C)CC1	-4	121
65	CCCOC(=O)c1c(C)oc2c1cc(NS(=O)(=O)c1ccc(OCC)cc1)c1ccccc12	-43	102
66	N#Cc1ccc(NC(=O)/C=C/c2ccccc2)cc1	·	101
67	O=C1NC(c2ccc(Cl)cc2)c2c1oc1ccccc1c2=O (stereo unspecified)	-47	98
68	Cc1cc(N(C(=O)Cn2nnc3ccccc32)C(C(=O)NCC2CCCO2)c2ccc(F)cc2)ccc1-n1cnnn1 (stereo unspecified)	-13	82
69	Cc1c(C(=O)NCc2ccccc2)sc2nc3n(c(=O)c12)CCCC3	·	98
70	CC(=O)Oc1ccc(C(=O)Nc2ccccc2NC(=O)c2ccc(OC(C)=O)cc2)cc1	·	90
71	Cc1ccc(S(=O)(=O)N(c2cc(C)nn2C)S(=O)(=O)c2ccc(C)cc2)cc1	-13	90
72	COc1ccc(C(=O)NC(=S)N2CC(C)OC(C)C2)cc1 (stereo unspecified)	10	100

entry	Sa growth 42C second temp	GIV Gai3 FP
61	94	·
62	·	98
63	105	102
64	88	101
65	88	108
66	78	102
67	84	102
68	100	98
69	81	101
70	65	100
71	93	111
72	96	104

Single values from above:
Reading of #2 under GIV Gai3 FP: 95
Reading of #11 under Sa growth 42C second temp: 91
Reading of #68 under GIV Gai3 FP: 98

Another view of part of the listing above:
| No. | SMILES | HCMV NEC inh | Sa growth 42C | Sa growth 42C second temp | GIV Gai3 FP |
| --- | --- | --- | --- | --- | --- |
| 68 | Cc1cc(N(C(=O)Cn2nnc3ccccc32)C(C(=O)NCC2CCCO2)c2ccc(F)cc2)ccc1-n1cnnn1 (stereo unspecified) | -13 | 82 | 100 | 98 |
| 69 | Cc1c(C(=O)NCc2ccccc2)sc2nc3n(c(=O)c12)CCCC3 | · | 98 | 81 | 101 |
| 70 | CC(=O)Oc1ccc(C(=O)Nc2ccccc2NC(=O)c2ccc(OC(C)=O)cc2)cc1 | · | 90 | 65 | 100 |
| 71 | Cc1ccc(S(=O)(=O)N(c2cc(C)nn2C)S(=O)(=O)c2ccc(C)cc2)cc1 | -13 | 90 | 93 | 111 |

Following part.
entry	smiles	HCMV NEC inh	Sa growth 42C
73	CN(C(=O)C1CCN(c2ncnc3c2nc2n3CCCCC2)CC1)c1ccccc1	-25	108
74	COc1ccc(C2CC(=O)C3=C(C2)Nc2onc(C)c2C3c2ccc(O)cc2)cc1OC (stereo unspecified)	-19	·
75	Cn1c2ccccc2c2cnn(CC(=O)NCc3ccc(Cl)cc3)c(=O)c21	-20	98
76	Cc1ccc2c(c1)c(=O)c1ccccc1n2CC(=O)Nc1ccc(F)cc1Cl	-3	·
77	O=C(COc1ccc(C(F)(F)F)cn1)Nc1ccc(C(F)(F)F)cc1	-17	84
78	Cc1ccc(CNC(=O)Cc2nc3nc(C)cc(C)n3n2)cc1	5	110
79	Cc1ccc(NC(=O)NCc2cc(=O)n3nc(-c4ccccc4)sc3n2)cc1C	-35	·
80	CC(=O)Oc1cccc(Nc2ncnc3ccccc23)c1	-5	81
81	Cc1cc(NC(=O)c2cc3c(s2)-c2ccccc2S(=O)(=O)C3)no1	4	99
82	C#CCSc1nc(-c2ccccc2)c2cc(Cl)ccc2n1	-32	102

entry	Sa growth 42C second temp	GIV Gai3 FP
73	96	107
74	·	112
75	87	111
76	·	108
77	88	·
78	89	103
79	·	102
80	80	97
81	85	100
82	87	102
